Compound activity (PubChem BioAssay)
MLL AF4-AF9 inh = inhibitors of AF4 peptide binding to AF9, primary screen, biochemical, AlphaScreen, biotin-AF4 peptide, FLAG-AF9, single point. Protein AF-9 (Homo sapiens), P42568. 350,000 compounds, 0.47% hits. inhibition, % at 10 µM;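 active = every replicate reaching a set inhibition limit, whatever the replicate mean, cut at about 25% in these data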;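 note: 0% = plate neutral control median and 100% = total signal loss; the record names both 10 and 1 µM as test concentration; the first replicate is given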
Target sequence (P42568 whole entry, looked up): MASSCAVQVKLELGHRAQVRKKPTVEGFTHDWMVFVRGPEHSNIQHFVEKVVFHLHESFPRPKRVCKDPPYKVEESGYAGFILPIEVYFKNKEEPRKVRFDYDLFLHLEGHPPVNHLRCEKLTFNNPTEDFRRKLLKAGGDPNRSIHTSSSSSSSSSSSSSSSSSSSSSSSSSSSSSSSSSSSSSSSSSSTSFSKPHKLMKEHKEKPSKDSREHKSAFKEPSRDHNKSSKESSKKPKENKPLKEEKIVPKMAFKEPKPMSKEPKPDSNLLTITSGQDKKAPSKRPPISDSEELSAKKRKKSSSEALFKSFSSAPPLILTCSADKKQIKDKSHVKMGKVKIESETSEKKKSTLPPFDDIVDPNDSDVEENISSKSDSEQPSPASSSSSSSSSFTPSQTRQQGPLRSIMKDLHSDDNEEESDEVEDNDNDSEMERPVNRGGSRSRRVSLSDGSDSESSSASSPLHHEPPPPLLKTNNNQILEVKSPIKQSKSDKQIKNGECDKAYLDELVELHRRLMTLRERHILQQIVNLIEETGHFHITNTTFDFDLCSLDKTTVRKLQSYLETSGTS
FGF22 binding = binders of human FGF22 protein, primary screen, FGF22 synaptogenesis inhibitor project, biophysical, thermal shift, single point; 340,000 compounds, 1.5% hits; calls only at 9.99 µM; Fibroblast growth factor 22 (Homo sapiens), Q9HCT0; recombinant FGF22 thermal shift, SYPRO orange fluorescence; percent of sucrose octasulfate shift, DMSO zero;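 active = melting point raised past a set limit in the mean and every replicate; three in four hits are not shown here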
Target sequence (Q9HCT0 whole entry, looked up): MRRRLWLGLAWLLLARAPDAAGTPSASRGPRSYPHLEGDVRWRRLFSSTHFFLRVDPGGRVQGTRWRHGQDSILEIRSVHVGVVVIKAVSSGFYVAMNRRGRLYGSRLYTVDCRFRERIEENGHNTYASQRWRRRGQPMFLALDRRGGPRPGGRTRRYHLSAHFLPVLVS
An asterisk follows results filed as active; i = inactive; + = active, no number.

Every second line gives: MLL AF4-AF9 inh, FGF22 binding
COc1ccc(S(=O)(=O)Nc2ccc3c(c2)C(=O)N([C@H](C)CO)C[C@H](C)[C@H](CN(C)C)OCCCC[C@@H](C)O3)cc1
→ 3.2, i
Cc1ccccc1S(=O)(=O)N1CCCCN2[C@H](CO)[C@H](c3ccc(-c4ccccc4)cc3)[C@H]2C1
→ 0.1, i
CCN(C[C@@H]1[C@@H](c2ccccc2)[C@H](CO)N1CC1CC1)C(C)=O
→ -6.8, i
COc1ccc(NC(=O)Nc2ccc3c(c2)CC(=O)N([C@H](C)CO)C[C@@H](C)[C@@H](CN(C)Cc2ccc4c(c2)OCO4)O3)cc1
→ 2.7, i
CCC(=O)N(C)C[C@@H]1Oc2cc(C3=CCCC3)ccc2S(=O)(=O)N([C@@H](C)CO)C[C@H]1C
→ -3.8, i
C/C=C/c1cnc2c(c1)C(=O)N([C@H](C)CO)C[C@H](C)[C@@H](CN(C)S(=O)(=O)c1cn(C)cn1)O2
→ -2.5, i
CCCN1[C@H](C(=O)N(C)C)[C@@H](CO)[C@@H]2Cn3c(ccc(-c4ccccc4OC)c3=O)[C@@H]21
→ -0.4, i
O=C(Nc1ccccc1)N1CCCCN2[C@H](CO)[C@@H](c3ccc(C#Cc4ccccc4)cc3)[C@H]2C1
→ 1.6, i
CN(C)C(=O)c1ccc(-c2ccccc2[C@H]2[C@H](C#N)N(C(=O)C3CCCCC3)[C@H]2CO)cc1
→ -0.2, i
CS(=O)(=O)Nc1ccc2c(c1)[C@H]1C[C@@H](CC(=O)NC3CCCCC3)O[C@@H](CO)[C@H]1O2
→ -1.1, i
CCC(=O)Nc1ccc2c(c1)C(=O)N(C)C[C@H](OC)[C@H](C)CN(C(=O)c1ccccc1F)[C@@H](C)CO2
→ 0.8, i
COc1cccc(NC(=O)N(C)C[C@@H]2OCc3ccccc3-c3ccccc3C(=O)N([C@@H](C)CO)C[C@@H]2C)c1
→ -1.2, i
Cc1noc(C)c1NC(=O)Nc1ccc2c(c1)C(=O)N([C@H](C)CO)C[C@H](C)[C@H](CN(C)Cc1ccncc1)OCCCC[C@H](C)O2
→ -0.2, i
C[C@@H]1CN([C@H](C)CO)C(=O)Cc2cc(NC(=O)C3CCCCC3)ccc2O[C@@H]1CN(C)S(=O)(=O)c1ccc(Cl)cc1
→ 1.3, i
CN(C)C(=O)c1ccc(-c2ccccc2[C@@H]2[C@@H](CO)N(C(=O)C3CCCCC3)[C@H]2C#N)cc1
→ -1.4, i
COc1ccc(NC(=O)Nc2cccc3c2O[C@H](CN(C)Cc2ccncc2)[C@H](C)CN([C@@H](C)CO)C3=O)cc1
→ 0.9, i
CCC(=O)N1C[C@@H](O)COC[C@H]2O[C@@H](CC(=O)NCc3cc(F)cc(F)c3)CC[C@@H]21
→ -27.5, i
CC(C)NC(=O)N(C)C[C@@H]1Oc2ccc(NS(=O)(=O)c3cn(C)cn3)cc2C(=O)N([C@@H](C)CO)C[C@@H]1C
→ -2.8, i
CO[C@@H]1CN(C)C(=O)c2ccc(NC(=O)NC(C)C)cc2OC[C@@H](C)N(C)C[C@@H]1C
→ 0.5, i
CCCC#Cc1ccc2c(c1)O[C@@H](CN(C)Cc1ccc3c(c1)OCO3)[C@@H](C)CN([C@@H](C)CO)S2(=O)=O
→ 6.5, i
C[C@H](CO)N1C[C@H](C)[C@H](CN(C)C)Oc2ccc(NS(=O)(=O)c3cn(C)cn3)cc2C1=O
→ -1.6, i
CO[C@H]1CN(C)C(=O)c2cc(C#N)ccc2OC[C@@H]2O[C@@H](CC[C@H]2OC)CCN(C)C(=O)[C@H]1C
→ 3.5, i
O=C(NCC[C@H]1CC[C@@H](NC(=O)c2cnccn2)[C@H](CO)O1)c1ccc2c(c1)OCO2
→ -0.4, i
Cc1noc(C)c1S(=O)(=O)Nc1ccc2c(c1)C(=O)N([C@H](C)CO)C[C@@H](C)[C@@H](CN(C)C(=O)c1ccncc1)OCCCC[C@@H](C)O2
→ 3.6, i
CCCNC(=O)N1[C@@H](CO)[C@@H](c2ccccc2)[C@@H]1CNC(=O)c1cccc(F)c1
→ -2.4, i
Cc1ccc(S(=O)(=O)N[C@H]2C=C[C@@H](CC(=O)NCc3ccccc3F)O[C@H]2CO)cc1
→ 3.2, i
C[C@H]1CN([C@@H](C)CO)C(=O)c2cc(C3=CCCCC3)cnc2O[C@@H]1CN(C)C(=O)Nc1ccc(F)cc1
→ -1.9, i
Cc1ccc(S(=O)(=O)N[C@@H]2CC[C@H](CCn3cc(C4CC4)nn3)O[C@H]2CO)cc1
→ 4.0, i
C[C@H]1CN([C@@H](C)CO)C(=O)c2c(c3ccccc3n2C)-c2ccccc2CO[C@H]1CN(C)Cc1cccc2c1OCCCO2
→ 2.7, i
C[C@H](CO)N1C[C@H](C)[C@H](CN(C)C(=O)Cc2ccccc2)OCCCC[C@H](C)Oc2ccc(NS(C)(=O)=O)cc2C1=O
→ 4.0, i
C[C@@H]1CN([C@@H](C)CO)C(=O)c2cc(NS(=O)(=O)c3ccccc3)ccc2O[C@@H]1CN(C)C(=O)NC1CCCCC1
→ -2.6, i
CO[C@@H](CN(C)S(=O)(=O)c1ccc(C)cc1)[C@H](C)CN(C(=O)Nc1ccccc1F)[C@@H](C)CO
→ -16.7, i
C[C@H]1CN([C@@H](C)CO)C(=O)Cc2cc(NS(=O)(=O)c3ccc(Cl)cc3)ccc2O[C@H]1CN(C)C(=O)NC1CCCCC1
→ -2.0, i
COC(=O)[C@]12C[C@H](CC(=O)N3CCN(C(=O)c4ccco4)CC3)C(=O)N(Cc3ccccc3)C1=C[C@H](C(C)C)O[C@@H]2C1CC1
→ 3.2, i
N#C[C@@H]1[C@H](c2ccc(C#CC3CCCC3)cc2)[C@H](CO)N1C(=O)Nc1ccc(F)cc1
→ 0.6, i
CC(C)NC(=O)N(C)C[C@H]1Oc2ccc(NS(=O)(=O)c3cn(C)cn3)cc2C(=O)N([C@@H](C)CO)C[C@H]1C
→ -4.4, i
COc1ccccc1C(=O)N1C[C@@H]2[C@H](c3ccccc31)[C@H](CO)N2C(=O)Cc1ccccc1
→ -0.4, i
C[C@H](CO)N1C[C@H](C)[C@H](CN(C)C(=O)Nc2ccc(F)cc2)Oc2ccc(NC(=O)Nc3ccc(C(F)(F)F)cc3)cc2CC1=O
→ 0.8, +
C[C@@H]1CN([C@@H](C)CO)C(=O)c2cc(C3=CCCC3)cnc2O[C@@H]1CN(C)C(=O)c1ccccn1
→ -10.2, i
COc1ccc(S(=O)(=O)Nc2ccc3c(c2)C(=O)N([C@@H](C)CO)C[C@H](C)[C@@H](CN(C)S(=O)(=O)c2ccc(C)cc2)O3)cc1
→ -9.3, i

Ordered by length of the SMILES (rising): part of the list above
Every second line gives: MLL AF4-AF9 inh, FGF22 binding
CCN(C[C@@H]1[C@@H](c2ccccc2)[C@H](CO)N1CC1CC1)C(C)=O
→ -6.8, i
CN(C)C(=O)c1ccc(-c2ccccc2[C@H]2[C@H](C#N)N(C(=O)C3CCCCC3)[C@H]2CO)cc1
→ -0.2, i
CO[C@H]1CN(C)C(=O)c2cc(C#N)ccc2OC[C@@H]2O[C@@H](CC[C@H]2OC)CCN(C)C(=O)[C@H]1C
→ 3.5, i

Next section
Every second line gives: MLL AF4-AF9 inh, FGF22 binding
COc1ccc2c3c([nH]c2c1)[C@@H](CO)N(C(=O)CN(C)C)CC31CCN(Cc2ccncc2)CC1
→ 4.8, i
O=C(C[C@H]1C[C@@H]2c3cc(NC(=O)NC4CCCCC4)ccc3O[C@@H]2[C@H](CO)O1)NCc1cccnc1
→ 1.2, i
CC(C)NC(=O)Nc1cccc2c1O[C@@H](CN(C)Cc1ccc(C(F)(F)F)cc1)[C@H](C)CN([C@@H](C)CO)C2=O
→ 5.0, i
Cc1noc(C)c1S(=O)(=O)Nc1ccc2c(c1)C(=O)N([C@@H](C)CO)C[C@@H](C)[C@H](CN(C)Cc1ccccc1)OCCCC[C@@H](C)O2
→ 1.8, i
COc1ccc(NC(=O)Nc2ccc3c(c2)[C@@H]2C[C@H](CC(=O)NCc4ccccn4)O[C@@H](CO)[C@@H]2O3)cc1
→ -2.8, i
C[C@H]1CN([C@@H](C)CO)S(=O)(=O)c2ccc(C#Cc3ccccc3)cc2O[C@@H]1CN(C)S(=O)(=O)c1ccccc1F
→ -1.6, i
Cc1noc(C)c1NC(=O)N(C)C[C@@H]1Oc2ccc(NC(=O)Nc3ccc(F)cc3)cc2CC(=O)N([C@@H](C)CO)C[C@H]1C
→ -1.9, i
Cc1noc(C)c1NC(=O)Nc1ccc2c(c1)CC(=O)N([C@H](C)CO)C[C@@H](C)[C@@H](CN(C)Cc1ccc(C(=O)Nc3ccccc3N)cc1)O2
→ 3.3, i
COc1ccc2c3c(n(C)c2c1)[C@H](CO)N(C(=O)CC1CC1)CC31CN(C(=O)CC2CC2)C1
→ 5.4, i
COc1ccc(NC(=O)N(C)C[C@@H]2Oc3c(NC(=O)C4CC4)cccc3C(=O)N([C@@H](C)CO)C[C@H]2C)cc1
→ -2.2, i
CN(C)C(=O)c1cccc(-c2ccc3c(c2)[C@@H]2[C@@H](CCN2C(=O)c2cnccn2)[C@H](CO)N3)c1
→ -0.4, i
C[C@@H]1CN([C@H](C)CO)C(=O)c2cc(NC(=O)NC3CCCCC3)ccc2O[C@@H](C)CCCCO[C@H]1CN(C)S(=O)(=O)c1ccccc1
→ -5.5, i
C[C@@H]1CN([C@H](C)CO)C(=O)c2cccc(NC(=O)NC3CCCCC3)c2O[C@@H]1CN(C)Cc1ccc2c(c1)OCO2
→ -2.9, i
COc1ccc(NC(=O)N(C)C[C@H]2Oc3ccc(NC(=O)NC4CCCCC4)cc3CC(=O)N([C@H](C)CO)C[C@@H]2C)cc1
→ -8.4, i
COC(=O)[C@]12C[C@H](CC(=O)NCc3cccc4ccccc34)C(=O)N(Cc3ccc4c(c3)OCO4)C1=C[C@H](C(C)(C)C)O[C@@H]2C
→ -4.4, i
C[C@H]1CN([C@@H](C)CO)C(=O)c2cc(NS(=O)(=O)c3ccccc3)ccc2O[C@H]1CN(C)S(C)(=O)=O
→ 0.2, i
Cc1cccc(S(=O)(=O)N2C[C@@H](O)COC[C@H]3O[C@@H](CC(=O)N4CCN(C)CC4)CC[C@@H]32)c1
→ -19.0, i
Cc1ccc(S(=O)(=O)N[C@@H]2CC[C@H](CCNC(=O)C3CC3)O[C@H]2CO)cc1
→ -3.0, i
C[C@@H]1CN([C@@H](C)CO)C(=O)c2cc(NC(=O)Nc3ccc4c(c3)OCO4)ccc2O[C@H]1CN(C)Cc1ccc2c(c1)OCO2
→ 14.8, i
COc1ccc(NC(=O)Nc2ccc3c(c2)C(=O)N([C@H](C)CO)C[C@H](C)[C@H](CN(C)C(=O)NC(C)C)OCCCC[C@@H](C)O3)cc1
→ -0.3, i

Quoted from the listing:
MLL AF4-AF9 inh with COc1ccc2c3c([nH]c2c1)[C@@H](CO)N(C(=O)CN(C)C)CC31CCN(Cc2ccncc2)CC1 → 4.8
MLL AF4-AF9 inh with COc1ccc(NC(=O)Nc2ccc3c(c2)[C@@H]2C[C@H](CC(=O)NCc4ccccn4)O[C@@H](CO)[C@@H]2O3)cc1 → -2.8
MLL AF4-AF9 inh with COc1ccc(NC(=O)N(C)C[C@H]2Oc3ccc(NC(=O)NC4CCCCC4)cc3CC(=O)N([C@H](C)CO)C[C@@H]2C)cc1 → -8.4
MLL AF4-AF9 inh with Cc1cccc(S(=O)(=O)N2C[C@@H](O)COC[C@H]3O[C@@H](CC(=O)N4CCN(C)CC4)CC[C@@H]32)c1 → -19.0

(more compounds)
Every second line gives: MLL AF4-AF9 inh, FGF22 binding
COc1ccccc1-c1ccc2c(c1)O[C@H](CN(C)C(=O)c1ccccc1)[C@H](C)CN([C@@H](C)CO)S2(=O)=O
→ 1.5, i
O=C(NCc1ccccc1)[C@@H]1CCCN1C(=O)[C@H]1CCCN1C(=O)c1c(F)cccc1F
→ -1.6, i
N#Cc1ccc(-c2ccc([C@@H]3[C@H]4CNCC(=O)N4[C@H]3CO)cc2)cc1
→ -1.2, i
O=C(C1CC1)N1[C@H](CO)[C@H]2c3ccccc3NC[C@H]21
→ -3.8, i
C[C@H]1CN([C@@H](C)CO)C(=O)c2cc(-c3ccncc3)cnc2O[C@@H]1CN(C)C(=O)c1ccccc1F
→ -3.4, i
CC(C)NC(=O)N1[C@H](CO)[C@@H](c2ccccc2-c2ccc(F)cc2)[C@@H]1C#N
→ -10.9, i
COc1ccc(NC(=O)Nc2ccc3c(c2)[C@H]2C[C@H](CC(=O)N4CCc5ccccc5C4)O[C@@H](CO)[C@H]2O3)cc1
→ 3.3, i
COc1ccc2c3c([nH]c2c1)[C@H](CO)N(CC1CCOCC1)CC31CN(C(=O)C2CCOCC2)C1
→ 2.4, i
C[C@H](O)C#Cc1cnc2c(c1)C(=O)N([C@H](C)CO)C[C@@H](C)[C@@H](CN(C)C(=O)c1ccccc1)O2
→ -1.2, i
COCC(=O)N1CCC2(CC1)CN(Cc1cccc(OC)c1)[C@H](CO)c1[nH]c3cc(OC)ccc3c12
→ 0.5, i
CN(C)CC(=O)N[C@H]1CC[C@@H](CCNC(=O)C2CCCC2)O[C@H]1CO
→ -0.3, i
COc1ccc(CN(C)C[C@@H]2Oc3ccc(NS(=O)(=O)c4ccc(Cl)cc4)cc3C(=O)N([C@@H](C)CO)C[C@H]2C)cc1
→ -8.4, i
CCCN(C)C[C@@H]1Oc2cc(C#CCOC)ccc2S(=O)(=O)N([C@H](C)CO)C[C@@H]1C
→ 1.3, i
CCCNC(=O)[C@H]1[C@H](CO)[C@H]2Cn3c(ccc(-c4ccccc4OC)c3=O)[C@H]2N1CC
→ -1.3, i
CN(C)CC(=O)N1CC[C@@H]2[C@H]1c1cc(-c3ccccc3)ccc1N(C)[C@H]2CO
→ 12.7, i
O=C(C[C@H]1C[C@@H]2c3cc(NC(=O)c4cccnc4)ccc3O[C@@H]2[C@@H](CO)O1)NCCc1ccccc1
→ -2.6, i
O=C(NCc1ccccc1)[C@H]1CCCN1C(=O)[C@H]1CCCN1C(=O)c1ccc(F)cc1
→ -1.3, i

This is a subset; count on the stated rates, not on these rows.
